Mtb H37Rv: Mycobacterium tuberculosis H37Rv growth inhibition, cell based, confirmatory dose response (AID 1949); actives 1.6% (n = 100,000); most inactive calls were filed without a number and no value below 0 was filed; one-dose inhibition, % at 10 µg/mL; IC50 in µg/mL for titrated hits;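 active means confirmed in a dose series; inconclusive means about 50% or more but not retested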;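 further: bacteria grown 7 days with compound before Alamar blue readout; 0% = untreated bacteria and 100% = reference antibiotic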
* hit, by the source's call; i = inactive; ? = inconclusive. These rows are one share of the data; the hit share may differ from the screen's.

SMILES | Mtb H37Rv
Cc1ccccc1NC(=O)c1ccccc1NS(=O)(=O)c1cccc2cccnc12 | 1%
CN(CC(=O)NCc1ccccn1)S(=O)(=O)c1ccc(Br)cc1 | 2%
Cc1cc(/C=C(/C#N)c2ccc(F)cc2)c(C)n1C | 14%
Cc1ccc(-c2csc(-c3ccc(O)cc3)n2)cc1 | 2.7µg/mL*
CCN(CC)S(=O)(=O)c1ccc(OC)c(NC(=O)c2ccco2)c1 | i
CCOC(=O)C(=O)Nc1ccc(S(=O)(=O)N2CC(C)CC(C)C2)cc1 (stereo not given) | i
Cc1cc(C(=O)Nc2nc(-c3ccccc3)c(-c3ccccc3)s2)no1 | i
C=CCSc1nc(-c2ccccc2)c(C#N)c(=O)[nH]1 | i
CCCCc1cc(=O)oc2c(CN(C)C)c(O)ccc12 | i
O=C(NCCNC(=O)c1ccccc1C(F)(F)F)c1ccccc1C(F)(F)F | i
O=C(NNC(=S)NCC1CCCO1)c1cccnc1 (stereo not given) | i
Cc1cc(C)nc(/N=C(\NC(=O)c2ccccc2)Nc2ccccc2Cl)n1 | i
O=C(COc1ccc(Cl)cc1)NCc1ccc(F)cc1 | i
O=C(Nc1ccc2oc(-c3ccc(Cl)cc3)nc2c1)c1cc2ccccc2o1 | i
CC(C)c1ccccc1NC(=O)CN1C(=O)c2ccccc2S1(=O)=O | i
Ic1ccc(-c2cn3ccccc3n2)cc1 | i
Cc1ccc(OCC(=O)Nc2ccc(CN3CCOCC3)cc2)cc1C | i
Cc1ccc(C(C)(C)C)c(OCCOCCN2CCCC2)c1 | i
O=[n+]1cc(-c2c(F)c(F)c(F)c(F)c2F)n([O-])c2c1CCCC2 | i
CC1CN(C(=O)c2cc(S(=O)(=O)N3CCCC3)c(Cl)cc2Cl)CC(C)O1 (stereo not given) | i
CCOc1ccc(N(CC(=O)NC)S(=O)(=O)c2ccc(Cl)cc2)cc1 | i
CCOC(=O)c1cc(C(C)C)sc1NC(=O)C1CC=CCC1C(=O)O (stereo not given) | i
CC1=C(C(=O)OC2CCCC2)C(c2ccc(C)s2)C2=C(CCCC2=O)N1 (stereo not given) | 7%
CCn1c(SCc2ccc(F)cc2)nnc1-c1c[nH]c2ccccc12 | 2%
COc1ccc(OC(C)C(=O)N2CCN(c3ccccc3)CC2)cc1 (stereo not given) | i
Cc1ccc(S(=O)(=O)NCc2c(-c3ccccc3)c3cc(Br)ccc3[nH]c2=O)cc1 | i
CCOc1cc(C(=O)NC(=S)Nc2c(F)cc(F)cc2Br)cc(OCC)c1OCC | i
COc1ccc(-c2cc(=O)n(-c3ccccc3)[nH]2)cc1 | i
O=S(=O)(NCCc1ccc(S(=O)(=O)N2CCCCC2)cc1)c1ccc2ccccc2c1 | 1%
COc1ccc2ccccc2c1C1NC(=O)NC(C)=C1C(=O)Nc1ccc(F)cc1 (stereo not given) | i
O=C(Nc1cccc(F)c1)c1ccc(Oc2ccc(C(F)(F)F)cc2[N+](=O)[O-])cc1 | i
CCOc1ccc(C(=O)NC(=S)Nc2ccc(S(N)(=O)=O)cc2)cc1 | i
O=C(Nc1ccc(S(=O)(=O)NCCc2ccccc2)cc1)C1CC1 | i
O=C(NCc1ccccc1Cl)c1sc2ccccc2c1Cl | i
CSc1ccc(CN2CCC(N3CC(C)OC(C)C3)CC2)cc1 (stereo not given) | i
COc1ccc(C(=O)NCc2ccc(Cl)c(Cl)c2)c(OC)c1 | i
C=CCNC(=O)c1ccccc1NC(=O)CN(c1cc(C)cc(C)c1)S(C)(=O)=O | i
CC(=O)Nc1cc(=O)[nH]c(NC(C)=O)n1 | 0%
COc1cc2c(cc1NC(=O)CSc1ccccn1)oc1ccccc12 | i
COc1ccc(-c2cccc(C(=O)NC(C)(C)C)c2)cc1 | 1%
CCOc1ccc(Nc2cc(N3CCOCC3)c3nonc3c2[N+](=O)[O-])cc1 | i
CC1=C(C)CC(C(=O)NC2CCCCCC2)C(C(=O)O)C1 (stereo not given) | i
CCOC(=O)c1c(NC(=O)C(OC(C)=O)c2ccccc2)sc2c1CCC(C)C2 (stereo not given) | 19%
CCOC(=O)c1sc2ncn(Cc3cccc(Cl)c3)c(=O)c2c1C | i
COc1ccc(Cl)cc1NC(=S)NCCc1ccc(Cl)cc1 | i
CC1CCN(C(=O)c2ccccc2NC(=O)c2ccc(F)cc2)CC1 | 3%
CC(=O)C(C)n1cnc2scc(-c3ccc(Cl)cc3)c2c1=O (stereo not given) | 2%
CN(C)NS(=O)(=O)c1ccc2c(c1)Cc1cc(S(=O)(=O)NN(C)C)ccc1-2 | i
Cc1ccccc1N1C(=O)NC(=O)C(CCc2ccccn2)(Cc2c(Cl)cccc2Cl)C1=O (stereo not given) | i
O=c1oc2cc3occ(-c4ccc(F)cc4)c3cc2c2ccccc12 | i
CCOC(=O)N1CCN(c2ccccc2OCC)CC1 | i
O=C(N1CCCCC1)N1CCN(c2ccc(Cl)cc2)CC1 | i
CC(C)CC(C(=O)Nc1ccccc1C(F)(F)F)N1C(=O)c2ccccc2C1=O (stereo not given) | i
COc1ccc2c(c1)Cc1sc(NC(C)=O)nc1-2 | i
S=C(NCCc1ccccn1)NC1CCCCC1 | i
O=C(COc1ccc(Cl)cc1Cl)c1ccccc1 | 16%
CCOC(=O)C1CCN(C(=O)c2cnn3c(C(F)F)cc(-c4ccccc4)nc23)CC1 | i
O=C(COc1cccc(NC(=O)c2cccc([N+](=O)[O-])c2)c1)c1ccc(Br)cc1 | 2%
COc1ccc(OCC#CCN2CCCC2)cc1 | i
COc1cc(OC)c(OC)cc1CNc1cccc(C)c1 | i
(listing goes on)
SMILES | Mtb H37Rv
CCOc1ccc(NC(=O)Nc2ccc(OC)cc2C)cc1 | i
Cc1ccc2oc(-c3ccc(C)c(NC(=O)c4ccco4)c3)nc2c1 | i
O=C(NC1CCCC1)c1cc(-c2ccncc2)nc2c(Cl)cccc12 | 44%
O=C(NC(=S)Nc1cccc(Cl)c1Cl)C1CC1 | i
CCCCn1nnnc1NCc1cccnc1 | 1%
CCOC(=O)c1c(CSc2nc(C)cc(C)n2)nc2c3ccccc3ccn12 | 2%
CCn1cc(C(=O)O)c(=O)c2cc(F)c(N3CCN(C(=S)Nc4cccc5ccccc45)CC3)cc21 | ?
CCC(Oc1ccccc1)C(=O)N1CCN(c2ccccn2)CC1 (stereo not given) | i
COc1ccccc1-c1nnc(SCc2cccc(C(F)(F)F)c2)n1N | i
S=C(Nc1ccccc1)Nc1ccc(I)cn1 | 1%
CCOc1ccccc1NC(=O)CN(c1cc(C)ccc1C)S(C)(=O)=O | i
C=CCNCCCCOc1ccc(Br)cc1C | i
COc1ccc(C)cc1S(=O)(=O)N(CC(=O)NCc1ccc2c(c1)OCO2)c1ccccc1 | i
Cc1cc(C)n(S(=O)(=O)c2ccc(Br)cc2)n1 | i
COC(=O)c1c(NC(=O)c2ccccc2[N+](=O)[O-])sc2c1CCCCC2 | i
O=C(CCN1C(=O)c2ccccc2C1=O)Nc1ccc(Br)cc1C(=O)O | i
COc1ccc(/C(N)=N/OC(=O)COc2cc(C)c(Br)c(C)c2)cc1 | 9%
CC(C)c1ccccc1NS(=O)(=O)Cc1ccc(Cl)cc1 | 3%
O=S1(=O)CCC(N2CCCCC2)C1 (stereo not given) | i
COCc1nnc(NC(=O)c2cc(Cl)ccc2OC)s1 | i
Cc1ccccc1N(CC(=O)Nc1ccccc1C(C)C)S(C)(=O)=O | i
COc1cccc(OCc2nc(-c3ccc(Cl)cc3)no2)c1 | i
O=[N+]([O-])c1ccc(CN2CCC(N3CCN(c4ccccc4F)CC3)CC2)cc1 | i
CCCC(C)NS(=O)(=O)c1ccc2c(c1)OCCO2 (stereo not given) | i
CCOC(=O)c1c(C(=O)OCC)c(C)n(CCc2c[nH]c3ccccc23)c1C | 3%
CCOc1ccc(N(CC(=O)NCCc2ccc(OC)cc2)S(=O)(=O)c2ccc(C)cc2)cc1 | i
CCOc1cccc(OCCOc2ccc(C)cc2Br)c1 | 5%
CCOC(=O)c1ccc(-n2cnc3sc(C)c(C)c3c2=O)cc1 | i
COc1ccc(C)cc1S(=O)(=O)N1CCN(C(c2ccccc2)c2ccccc2)CC1 | i
COc1cc(C(=S)N2CCN(C)CC2)cc(OC)c1OC | i
Cc1c(Cc2ccccc2)c(=O)oc2c(O)c(O)ccc12 | i
CCOc1ccc(Cl)cc1S(=O)(=O)N1CCCC1 | i
CC(C)c1ccc(NC(=O)CNS(=O)(=O)c2ccc(F)cc2)cc1 | i
Cn1c(SCC(=O)Nc2ccccc2C(F)(F)F)nnc1-c1ccc(NC(=O)c2ccc(F)cc2)cc1 | i
CC(=O)Nc1ccc(NC(=O)CN(c2ccc(I)cc2)S(C)(=O)=O)cc1 | 0%
Fc1ccc(NC(=S)NC2CC2)cc1Cl | i

Part of the list above in another layout.
SMILES	Mtb H37Rv
Cc1c(Cc2ccccc2)c(=O)oc2c(O)c(O)ccc12	i
COc1cc(C(=S)N2CCN(C)CC2)cc(OC)c1OC	i
CC(C)c1ccc(NC(=O)CNS(=O)(=O)c2ccc(F)cc2)cc1	i
CCOC(=O)c1ccc(-n2cnc3sc(C)c(C)c3c2=O)cc1	i

Next structures follow:
SMILES | Mtb H37Rv
Cc1ccc(-c2nnc(Nc3ccc(CC(N)=O)cc3)c3ccccc23)cc1S(=O)(=O)NCCO | i
CCCCOc1cccc(C2NC(=S)NC(C)=C2C(=O)OC(C)C)c1 (stereo not given) | 2%
CCOC(=O)N1CCN(C(=O)CCSc2ccc(Cl)cc2)CC1 | i
COc1ccc(/C=C(\C#N)c2nc(-c3ccc(C)cc3)cs2)cc1 | 16%
Cc1cccc(NC(=O)CSc2nnc(-c3ccco3)n2C)c1C | i
CC1CCc2cc(F)ccc2N1S(=O)(=O)c1ccc(Br)cc1 (stereo not given) | i
O=C(Nc1cccnc1)c1ccc(NC(=O)c2ccco2)cc1 | i
CC1(C(=O)Nc2sc3c(c2C(N)=O)CCCCC3)CC1(Cl)Cl (stereo not given) | i
O=C(Cc1ccccc1)Nc1cc(Cl)ccc1Oc1ccccc1 | i
S=C(NCc1ccc(Cl)cc1)N1CCN(c2ccccn2)CC1 | 2%
C=CCNC(=S)Nc1ccc(F)cc1[N+](=O)[O-] | 1%
Cc1nnc(Sc2nc(Nc3ccc(F)cc3)nc(Nc3ccc(F)cc3)n2)s1 | ?
COc1cc2c(cc1OC)CN(C(=O)CSc1ncnc3sc(C)c(C)c13)CC2 | i
Clc1ccc(N2CCN(c3ncnc4scc(-c5ccccc5)c34)CC2)cc1 | i
O=c1cc(C(F)(F)F)c2ccc(OCc3cccc(Cl)c3)cc2o1 | i
CC(C)NCc1ccccc1OCC(N)=O | i
CCn1c(SCC(=O)Nc2nc(-c3ccccc3)c(-c3ccccc3)o2)nc2ccccc2c1=O | i
O=C(Nc1ccc(I)cc1)c1ccc(F)cc1 | i
Fc1ccc(CN2CCN(C3CCCC3)CC2)cc1 | i
COc1ccc(CNC(=O)CSc2nc3ccc(N)cc3s2)cc1 | i
COc1ccc2nc(NS(=O)(=O)c3ccc(Br)cc3)sc2c1 | i
C=CCOc1c(Br)cc(CNCCN(C)C)cc1OC | i
Cc1ccc(C(=O)NC(=S)Nc2cccc(C(F)(F)F)c2)cc1Cl | i
CC(C)(C)C(=O)NC(=S)Nc1ccc2c(c1)COC2=O | i
O=C1COc2ccc(C(=O)c3ccccc3)cc2CN1 | i
CCOC(=O)C1CCN(C(=O)CN(c2ccc(F)c(Cl)c2)S(C)(=O)=O)CC1 | i
CCC(=O)N1c2ccccc2NC2=C(C(=O)CC(C)(C)C2)C1c1ccc(F)cc1 (stereo not given) | i
CCCCC(=O)Nc1ccc(C(=O)OC)cc1 | 2%
S=C1NC2=C(CCc3ccccc32)C(c2ccccc2Cl)N1 (stereo not given) | i
COc1cc(S(=O)(=O)Nc2ccccc2)ccc1NC(=O)c1cccc([N+](=O)[O-])c1 | i
COc1ccc(S(=O)(=O)Nc2ccc(OCc3ccccc3)cc2)cc1Br | i
COc1ccc(C(=O)CCC(=O)Nc2cccc(C)c2)cc1 | i
COc1cc2c(NCc3ccccc3)cc(O)c(CC(=O)Nc3ccccc3)c2cc1OC | 3%
Nc1ccc(N2CCN(C(=O)c3ccco3)CC2)cc1 | i
CSc1ccccc1NC(=O)C1CCN(S(=O)(=O)c2cc(Cl)ccc2Cl)CC1 | i
CC(C)(C)CC(=O)NC(=S)NC1CCCCC1 | i
O=C(Nc1cccc(C(=O)N2CCOCC2)c1)c1ccc(Cl)cc1Cl | i
C=CCNC(=O)c1ccccc1NC(=O)CN(c1ccc(F)cc1)S(=O)(=O)c1ccc(C)cc1 | i
CCc1ccc(C(=O)Nc2ccc(Br)cc2)o1 | i
CC(C(=O)Nc1nc2c(s1)CCCC2)N1C(=O)c2ccccc2C1=O (stereo not given) | i
COc1ccc(Br)cc1CN1CCN(C(=O)c2c(OC)cccc2OC)CC1 | i
C=CCn1c(SCc2nc3ccccc3[nH]2)nc2sc(C)cc2c1=O | i
O=C(COc1ccccc1)NCCSC1CCCCC1 | i

In the list so far, 15 contain an aryl thioether with sulfur outside any ring.
SMILES | Mtb H37Rv
C=CCSc1nc(-c2ccccc2)c(C#N)c(=O)[nH]1 | i
CCn1c(SCc2ccc(F)cc2)nnc1-c1c[nH]c2ccccc12 | 2%
CSc1ccc(CN2CCC(N3CC(C)OC(C)C3)CC2)cc1 (stereo not given) | i
COc1cc2c(cc1NC(=O)CSc1ccccn1)oc1ccccc12 | i
CCOC(=O)c1c(CSc2nc(C)cc(C)n2)nc2c3ccccc3ccn12 | 2%
COc1ccccc1-c1nnc(SCc2cccc(C(F)(F)F)c2)n1N | i
Cn1c(SCC(=O)Nc2ccccc2C(F)(F)F)nnc1-c1ccc(NC(=O)c2ccc(F)cc2)cc1 | i
CCOC(=O)N1CCN(C(=O)CCSc2ccc(Cl)cc2)CC1 | i
Cc1cccc(NC(=O)CSc2nnc(-c3ccco3)n2C)c1C | i
Cc1nnc(Sc2nc(Nc3ccc(F)cc3)nc(Nc3ccc(F)cc3)n2)s1 | ?
COc1cc2c(cc1OC)CN(C(=O)CSc1ncnc3sc(C)c(C)c13)CC2 | i
CCn1c(SCC(=O)Nc2nc(-c3ccccc3)c(-c3ccccc3)o2)nc2ccccc2c1=O | i
COc1ccc(CNC(=O)CSc2nc3ccc(N)cc3s2)cc1 | i
CSc1ccccc1NC(=O)C1CCN(S(=O)(=O)c2cc(Cl)ccc2Cl)CC1 | i
C=CCn1c(SCc2nc3ccccc3[nH]2)nc2sc(C)cc2c1=O | i
